# Source: PubChem BioAssay
# CtBP-E1A blk = CtBP/E1A binding inhibition; AlphaScreen GST-E1A/His-CtBP binding, 1536-well; hits give low values; control for the full effect not named in the record; activity change, % (no concentration beside the values); hit rate 0.49% among 340,000; AID 651724; in the data active means activity change below about -65%; inconclusive means about -30% to -65%; inactive means above about -30%; further: on the % scale 0 is the no-effect control and ±100 the full control effect; compound concentration not given in the record
#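 Protein mix (5X: 125 nM each GST-E1A, His-CtBP) was incubated with pinned compound 2 h at 37 deg C in dark, in 50 mM Tris pH 8.0 buffer with 300 mM NaCl. Glutathione donor and nickel acceptor beads followed; AlphaScreen signal read after 1 h.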
# TRPML1 ag = activates the human TRPML1 channel. TRPML1-expressing cells, Ca2+ dye fluorescence, FDSS; host cell line not named in the record; reference of the full effect not given here. activation, % (test concentration not listed). hit rate 0.12% among 410,000. AID 624414; in the data active = activation above about 50%; inconclusive = about 30% to 50%; inactive = below about 30%; further: 0% is about no effect; the text of the record puts the active cut at 80%
# Target sequence (Q9GZU1 whole entry, looked up): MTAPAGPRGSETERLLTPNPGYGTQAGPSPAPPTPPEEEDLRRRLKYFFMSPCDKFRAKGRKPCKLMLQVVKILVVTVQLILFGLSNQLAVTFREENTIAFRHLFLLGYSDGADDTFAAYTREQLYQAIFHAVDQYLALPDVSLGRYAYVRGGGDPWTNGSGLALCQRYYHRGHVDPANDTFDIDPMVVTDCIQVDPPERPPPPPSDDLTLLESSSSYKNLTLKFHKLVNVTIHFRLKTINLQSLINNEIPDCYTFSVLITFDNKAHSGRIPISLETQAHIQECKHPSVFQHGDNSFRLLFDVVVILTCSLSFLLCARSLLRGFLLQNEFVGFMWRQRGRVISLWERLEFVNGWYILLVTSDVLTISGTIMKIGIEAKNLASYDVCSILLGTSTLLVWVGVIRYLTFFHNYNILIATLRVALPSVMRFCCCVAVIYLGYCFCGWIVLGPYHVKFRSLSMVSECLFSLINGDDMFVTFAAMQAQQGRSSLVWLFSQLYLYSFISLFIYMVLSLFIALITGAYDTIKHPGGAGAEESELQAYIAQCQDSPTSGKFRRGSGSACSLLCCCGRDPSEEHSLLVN
#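 TRPML1-DL cells, Tet-induced overnight (~16 h, 37 degrees C), loaded 45-90 min at room temperature with Ca8 no-wash calcium dye plus quencher. FDSS fluorescence: 10 s baseline, compound pin-transfer, 110 s agonist read, then EC80 54-4 (4uM final) and 110 s antagonist read.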
# PINK1 modulator = changes PINK1 expression | AID 624263 | Potency, µM (series often up to 76.6 µM), inactives show at the top dose activation (PINK1 increase), usual class: activators | PINK1 immunofluorescence, high-content cytometry, 24 h | hit rate 0.2% among 410,000; active = well fitted activation curve with a large enough effect; inconclusive = small, poorly fitted or top-dose-only effect; inactive = flat fitted curve, though single readings scatter; cell line not stated here;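 further: potency means the concentration at half of the fitted maximal effect; % of control where 0% means no effect; nearly all actives have a fitted effect of over 65% in size; a mitochondrial uncoupler was the plate control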
#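 PINK1 protein, normally rapidly degraded, was detected by immunofluorescence after 24 hour compound treatment of a stable cell line. Titration data (5 concentrations) came from laser-scanning cytometry, with CCCP-treated wells as controls.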
# Six1-Eya2 blk = blocks human Six1 binding to Eya2; activity change, % (test concentration not listed); hit rate 0.56% among 360,000; Q15475+O00167; AlphaScreen GST-Six1/His-Eya2 binding, biochemical; hits give low values; control for the full effect not named in the record; AID 651725; in the data active = activity change below about -65%; inconclusive = about -30% to -65%; inactive = above about -30%; further: on the % scale 0 is the no-effect control and ±100 the full control effect; compound concentration not given in the record
#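 Compounds are tested against tagged Six1 and Eya2 proteins bridged by glutathione donor and nickel acceptor beads; after a one-hour incubation at 37 °C without light, AlphaScreen emission is recorded.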
# D2 potentiator = positive allosteric modulators of human D2 dopamine receptor; P14416; DiscoveRx D2 beta-arrestin cells, luminescence, 90 min; 100% = 57 uM dopamine signal; potentiation, % (test concentration not listed); hit rate 0.23% among 360,000; active = potentiation of 50% or more; inconclusive = 30% to 50%; inactive = 30% or less;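 further: compound concentration not given in the record; tested on top of an EC20 dose of dopamine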
# Target sequence (P14416 whole entry, looked up): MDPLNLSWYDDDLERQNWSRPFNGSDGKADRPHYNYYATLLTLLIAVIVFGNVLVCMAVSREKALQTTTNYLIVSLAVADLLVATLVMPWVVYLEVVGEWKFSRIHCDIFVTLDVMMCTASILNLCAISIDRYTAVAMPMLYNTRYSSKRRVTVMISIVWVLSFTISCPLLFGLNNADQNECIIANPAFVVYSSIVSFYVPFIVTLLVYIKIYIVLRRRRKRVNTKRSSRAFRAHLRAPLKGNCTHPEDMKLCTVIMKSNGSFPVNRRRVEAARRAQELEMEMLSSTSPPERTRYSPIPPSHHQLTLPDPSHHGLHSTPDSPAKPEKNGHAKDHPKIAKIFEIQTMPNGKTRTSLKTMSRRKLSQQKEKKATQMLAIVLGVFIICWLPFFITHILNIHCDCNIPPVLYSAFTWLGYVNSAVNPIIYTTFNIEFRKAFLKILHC
#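 D2 cells co-treated with compound plus 50 nM dopamine (EC20) for 90 min at 37 deg C to detect potentiation. Beta-arrestin recruitment was read as enzyme-fragment luminescence after 1 h at ambient temperature. Full response was set by 57 uM dopamine.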
# D2 ag = agonists of human D2 dopamine receptor (beta-arrestin). activation, % (test concentration not listed). DiscoveRx PathHunter D2 beta-arrestin, luminescence, 90 min; 100% = 57 uM dopamine signal. hit rate 0.084% among 360,000. P14416; in the data active = activation above about 40%; inconclusive = about 15% to 40%; inactive = below about 15%; further: compound concentration not given in the record; the text of the record calls up to 30% inactive
#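 Agonist mode: compounds alone added to overnight-plated D2 PathHunter cells for 90 min at 37 C, with 57 uM final dopamine (EC100) defining full response. Beta-arrestin recruitment detected by chemiluminescent reagent, read after 1 h at ambient temperature.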
# Starred values were filed as active, the others as inactive; ? = inconclusive; nt = no result given; & = joins results of further samples; [ ] = dose if it differs, or a comment.
SMILES,CtBP-E1A blk,TRPML1 ag,PINK1 modulator,Six1-Eya2 blk,D2 potentiator,D2 ag
CC1(C)CC(NC(=O)c2cc([N+](=O)[O-])cc([N+](=O)[O-])c2)CC(C)(C)N1,6,0.0,1.2%,-5,-1,3.6
C=CCOC(=O)C1=C(C)NC(C)=C(C(=O)OCC=C)C1c1ccc(O)cc1,-6,2.6,nt,-3,-13,-1.2
COC(=O)[C@@]1(Cc2ccc(F)cc2)[C@H]2c3cc(C(=O)N4CCCC4)n(CCF)c3C[C@H]2CN1C(=O)c1ccccc1,-2,2.1,-0.2%,-7,nt,nt
CC(C)C[C@@H](CNCC(=O)[C@H](Cc1c[nH]c2ccccc12)NC(=O)c1[nH]cnc1C(=O)N[C@@H](C)CN)NC(=O)c1nc[nH]c1C(=O)N[C@@H](C)C(=O)O,-27,-0.7,-0.4%,-23,-10,-6.2
c1ccc(OCc2nn3c(-c4ccccn4)nnc3s2)cc1,-13,0.3,1.1%,-7,4,-0.9
CC(=O)Nc1ccc(S(=O)(=O)Nc2cccc(-c3ccc4nncn4n3)c2)cc1,-5,0.5,1.8%,-6,0,0.0
CCn1c(SCC(=O)NC2CCCCC2)nc2ccccc2c1=O,2,0.2,0.0%,4,2,-2.7
COCCn1c(SCC(=O)NC(C)c2ccccc2)nc2ccccc21 (configuration not stated),9,1.5,-0.4%,2,-9,0.5
COc1ccc(C(=O)c2c(C)c(CCC#N)n3ccccc23)c(OC)c1,3,1.6,3.4%,6,-1,-2.6
O=C(COC(=O)c1ccc(Br)o1)Nc1nc2c(F)c(F)c(F)cc2s1,-1,0.2,0.0%,1,-5,-0.3
O=C(CSc1nnc(C2CC2)n1CC1CCCO1)Nc1cccc(Cl)c1 (configuration not stated),-14,-0.4,0.7%,0,-8,1.0
CC(C)(C)CC(=O)Nc1nnc(SCC(=O)NC2CCCCC2)s1,-2,-0.4,0.3%,1,-4,-2.6

# Nothing new here: an excerpt of the list.
SMILES,CtBP-E1A blk,TRPML1 ag,PINK1 modulator,Six1-Eya2 blk,D2 potentiator,D2 ag
COCCn1c(SCC(=O)NC(C)c2ccccc2)nc2ccccc21 (configuration not stated),9,1.5,-0.4%,2,-9,0.5
COc1ccc(C(=O)c2c(C)c(CCC#N)n3ccccc23)c(OC)c1,3,1.6,3.4%,6,-1,-2.6
O=C(COC(=O)c1ccc(Br)o1)Nc1nc2c(F)c(F)c(F)cc2s1,-1,0.2,0.0%,1,-5,-0.3

# (list continues)
SMILES,CtBP-E1A blk,TRPML1 ag,PINK1 modulator,Six1-Eya2 blk,D2 potentiator,D2 ag
COc1cc(/C=C2\SC(=S)N(CCC(=O)Nc3ccccc3O)C2=O)cc(OC)c1OC,-14,0.5,4.8%,-20,-2,-3.5
COc1ccc(C2CC(=O)c3c(O)cc(O)cc3O2)cc1O (configuration not stated),-15,-0.2,0.4%&2.5%,-1,-2,-0.7
Cc1nnsc1S(=O)c1ccc(F)cc1 (configuration not stated),-1,nt,-0.8%,-4,-1,-6.7
CCOC(=O)c1sc2nc3c(SCC(=O)O)cc(C(=O)c4ccccc4O)cn3c(=O)c2c1C,1,-1.0,3.1%,6,7,-0.6
Cc1cc(C)n2c(SCCC(C)C)nnc2n1,-1,1.5,-1.9%,10,-4,-4.0
C=CCNC(=O)c1cn(CC)c2cc(N3CCN(C(=O)c4ccco4)CC3)c(F)cc2c1=O,nt,-1.0,1.6%,?,-4,11
COc1cccc(CC(=O)OC(C)C(=O)Nc2ccc(N3CCOCC3)cc2)c1 (configuration not stated),-12,0.8,0.9%,-5,-11,-1.3
CCN(CC(=O)Nc1ccc(NC(C)=O)cc1)CC(=O)Nc1ccccc1C(=O)c1ccccc1,-10,1.6,0.1%,-4,-3,-4.0
Cc1ccc(CNC(=O)/C=C/c2ccc(S(=O)(=O)N3CCOCC3)cc2)cc1,-3,-0.4,-0.3%,-4,-10,-3.0
O=C(O)CCc1ccc(-c2ccccc2)n1CC(=O)Nc1cccc(C(F)(F)F)c1,-3,0.6,2.2%,-5,-2,-1.4
O=C(O)C1CCN(C(=O)c2ccccc2C(=O)N2CCC(C(=O)O)CC2)CC1,6,0.2,nt,3,12,0.7
O=C(/C=C/c1ccccc1Cl)Nc1cccc(O)c1,nt,-1.5,3.1%,-6,0,-4.3

# Compound profiles (already shown). Values in the order: CtBP-E1A blk, TRPML1 ag, PINK1 modulator, Six1-Eya2 blk, D2 potentiator, D2 ag
# Record of Cc1cc(C)n2c(SCCC(C)C)nnc2n1 = -1, 1.5, -1.9%, 10, -4, -4.0
# Record of Cc1nnsc1S(=O)c1ccc(F)cc1 (configuration not stated) = -1, nt, -0.8%, -4, -1, -6.7
# Record of O=C(O)C1CCN(C(=O)c2ccccc2C(=O)N2CCC(C(=O)O)CC2)CC1 = 6, 0.2, nt, 3, 12, 0.7
# Record of O=C(O)CCc1ccc(-c2ccccc2)n1CC(=O)Nc1cccc(C(F)(F)F)c1 = -3, 0.6, 2.2%, -5, -2, -1.4

# (list continues)
SMILES,CtBP-E1A blk,TRPML1 ag,PINK1 modulator,Six1-Eya2 blk,D2 potentiator,D2 ag
Cc1cnc(C(=O)OCC(=O)Nc2cc(-c3ccccc3)nn2-c2ccccc2)cn1,10,2.1,1.2%,10,0,1.4
COc1cc2ccccc2cc1C(=O)NCC(c1cccs1)N(C)C (configuration not stated),-4,1.4,-0.9%,-9,-16,-2.0
COc1ccc(NC(=O)COC(=O)CNC(=O)C2CCCCC2)cc1OC,5,2.0,0.3%,5,-36,-8.0
C=CCN1C(=O)c2ccccc2Sc2ccc(C(=O)NC(C)C)cc21,0,nt,0.5%,-6,-2,0.6
COc1ccc(NC(=O)c2ccc(NC(=O)c3ccncc3)cc2)cc1,-2,0.0,10%,2,-3,-2.5
O=C(c1ccco1)N1CCN(c2nc(C(F)(F)F)nc3c2nnn3Cc2ccccc2)CC1,-8,1.3,2.1%[38.3 µM],-15,0,0.3
COc1ccc(Cl)cc1NC(=O)CNc1ccc(F)cc1C,1,2.6,8.5%,-4,-7,-1.4
CCc1nc2c(OCC(=O)c3ccc(Cl)cc3Cl)cccn2c1N(C=O)Cc1ccc(OC)cc1,-9,-0.6,-0.2%,-11,-13,-2.7
CNC(=O)c1ccccc1F,1,-0.2,-0.6%,0,-5,0.8
CNC(=O)c1c(NC(=O)c2ccc(S(=O)(=O)N3CC(C)OC(C)C3)cc2)sc2c1CCN(C(C)C)C2 (configuration not stated),4,0.5,0.0%,-4,-9,-2.6
CNC(=S)N1C2CCCC1CC(NC(=O)c1ccc(F)cc1)C2 (configuration not stated),nt,nt,0.5%,6,-10,-0.3
Clc1ccc(CSc2ncnc3c2ncn3C2CCCCO2)cc1 (configuration not stated),11,4.3,8.4%,4,-5,-1.4
Cn1c(NCCCO)nc2ccccc21,5,0.0,nt,-1,-11,-3.0
CCNC(=O)N1c2ccccc2Sc2ccccc21,-13,0.7,2.8%,5,-9,-4.6
COc1cc(-c2nnc(COC(=O)c3cccn3C)o2)cc(OC)c1OC,-18,0.2,0.6%,-11,-4,2.4
O=C(N/N=C/c1ccco1)c1cc(-c2cccc(Br)c2)nc2ccccc12,-3,1.5,2.5%,-30,4,-4.0
COc1ccc(CCNC(=O)Nc2ccc3c(c2)c(=O)n(C)n3Cc2ccc(F)cc2)cc1OC,-5,-0.9,1.3%,-3,11,14
O=C1CN=C(Nc2ccc(Cl)cc2)N1c1ccccc1,3,-0.4,-0.6%,6,-9,0.6
O=C(COC(=O)c1ccc2ncsc2c1)Nc1cccc(Cl)c1,-11,1.9,0.1%,5,-1,-0.2
CN(C)S(=O)(=O)c1ccc(C(=O)NCc2cccs2)cc1,0,0.3,-0.6%[38.3 µM],-2,3,1.4
Cc1ccc(SCCN2CCC(O)CCC2=O)cc1 (configuration not stated),5,-0.8&-0.6,2.9%,6,-35,-2.0
COCCNC(=S)N/N=C(\C)c1cccc([N+](=O)[O-])c1,-6,-0.7,5.3%,-8,-19,8.9
CC[C@H](C)/C=C(C)/C=C/C(=O)Cc1cc(O)c(C)c(O)c1C=O,0,nt,6.3%,-20,18,1.4
COc1cc(C(=O)NCC(=O)N/N=C(/C)c2cccs2)cc(OC)c1OC,6,-0.6,0.0%,6,-20,0.1
Cc1nn(C)cc1CNC(=O)c1cccc(Cl)c1,4,-0.6,?,5,-6,-2.0
CN(CC(=O)Nc1c(Cl)cccc1Cl)C(=O)C1=COCCO1,16,0.0,?,0,-10,-4.0
CSc1ccc(CN2CCC2(C)C(=O)NC2CCc3ccccc32)cc1 (configuration not stated),-12,-0.3,0.6%,-9,-16,-3.0
CCOC(=O)C1(Cc2ccccc2)CCN(Cc2ccc3c(c2)OCCO3)CC1,1,0.3,3.9%,2,0,-6.4
CCOC(=O)c1cccc(NC(=O)CN(c2ccc(C)cc2)S(=O)(=O)c2c(C)noc2C)c1,-3,2.0,-1.5%,1,12,-0.2
Cc1cccc(N2C(=O)CC(SC(=Nc3ccccc3)Nc3ccccc3)C2=O)c1 (configuration not stated),-1,0.0,-1.3%,-7,-37,1.6
COCCCNC(=O)c1oc2ccc(S(=O)(=O)N(C)C3CCCCC3)cc2c1C,-9,1.9,6.1%,-11,4,-0.8
O=C(Nc1cccc(C(F)(F)F)c1)c1cnc2n(c1=O)CCS2,2,0.4,-0.9%,5,-7,-1.4
O=C(CSC1=NCCS1)N1CCOCC1,9,-0.4,-2.3%,1,0,-0.6
CC(=O)/C(N=Nc1cc(C)ccc1O)=C(\C)O,9,1.1,5.5%,24,-3,7.5
COc1ccc2cc(C(=O)NCCCN3CCCC3=O)[nH]c2c1,nt,-0.2,-1.0%,-1,-10,-5.3
COc1ccc(C(=O)O/N=C(\N)c2ccccc2)cc1OC,-8,-1.0,0.9%,2,?,10
O=C(NCCc1ccc(Cl)cc1Cl)c1cccnc1,40,0.1,0.9%,9,1,-0.3
COc1ccc2c(c1)c(=O)oc1c(C)c(OCc3cc(C(=O)O)oc3C)ccc12,-19,-0.8,5.7%,?,2,4.9
O=C(/C=C/c1cccc([N+](=O)[O-])c1)NCCN1C(=O)S/C(=C\c2ccc(F)cc2)C1=O,1,-1.2,18%,-4,-1,-5.6
Cc1ccc(-n2cc(C(=O)c3ccc(N4CCN(C)CC4)cc3)nn2)cc1Cl,6,-0.6,0.5%,1,-4,-6.7
COCCNC(=O)c1c(C)cc(C)cc1C,10,0.1,0.1%,9,-9,4.0
Cc1cc(C)c(NS(=O)(=O)c2c(C)noc2C)c(C)c1,nt,1.1,0.9%,10,-1,2.4
CCC(=O)c1c[nH]c(C(=O)NCC2CCCO2)c1 (configuration not stated),11,-0.6,-2.5%,14,-8,-0.2
COc1ccc(S(=O)(=O)N(C)[C@H]2C[C@H]3c4cc(N5CCN(C)CC5)ccc4CCN3C(=O)[C@H]2[C@H](C)O)cc1,-5,-0.7,-0.5%,6,-4,-7.8
Cc1ccc(S(=O)(=O)NC(=O)C2(C)CCN2C(=O)c2ccccc2CCc2ccccc2)nc1 (configuration not stated),7,-0.6,1.0%,-2,4,-2.2
N#Cc1c(Sc2ncc(C(F)(F)F)cc2Cl)nsc1C/C=N\OCc1c(F)cccc1Cl,5,0.7,-2.4%,0,58*,2.3
N#CCCN(Cc1cccnc1)C(=S)NC(=O)c1ccco1,7,-0.6,0.3%,8,-4,0.8
Cc1onc(-c2c(Cl)cccc2Cl)c1C(=O)N1CCc2ccccc21,-3,2.2,9.3%[38.3 µM],2,-10,-3.3
